# Screening data (PubChem)
# PINK1 expr mod – A Quantitative High throughput Screen to Identify Chemical Modulators of PINK1 Expression; 410,000 compounds, 0.2% hits; AID 624263, 2012; PINK1 immunofluorescence, high-content cytometry, 24 h; Potency, µM (doses to about 76.6 µM), for the others: top-dose activation (PINK1 increase), most hits filed as activators; active = well fitted activation curve with a large enough effect; inconclusive = small, poorly fitted or top-dose-only effect; inactive = flat fitted curve, though single readings scatter; cell line not stated here;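 note: % of control where 0% means no effect; nearly all actives have a fitted effect of over 65% in size; a mitochondrial uncoupler was the plate control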
#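 PINK1 protein level read as immunofluorescence by microplate cytometer in a fixed, stained stable cell line after 24 h exposure to five compound concentrations, with CCCP as control.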
# ClpP mod – qHTS Assay for Activators of ClpP | ATP-dependent Clp protease proteolytic subunit (Bacillus subtilis (strain 168)), P80244 | purified B. subtilis ClpP, FRET peptide cleavage, 20 min | Potency, µM (highest dose often 57.5 µM), for the others: top-dose activity change, negative = active | 340,000 compounds, 1.9% hits | AID 651965, 2013; active = well fitted falling curve with a large enough effect; inconclusive = small, poorly fitted or top-dose-only effect; inactive = no such curve, though single readings can be large or run the other way; note: the source files actives as falling curves though it sought activators and does not explain the sign; nearly all actives have a fitted effect of over 65% in size; many hits overshoot -100%
# Target sequence (P80244 whole entry, looked up): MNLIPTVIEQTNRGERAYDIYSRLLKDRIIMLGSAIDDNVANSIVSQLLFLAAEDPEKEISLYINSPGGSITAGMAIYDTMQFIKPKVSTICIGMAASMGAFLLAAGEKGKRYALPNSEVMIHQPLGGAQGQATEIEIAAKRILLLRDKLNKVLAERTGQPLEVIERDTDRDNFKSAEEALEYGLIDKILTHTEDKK
#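 Buffer: 100 mM Tris/HCl pH8, 100 mM KCl, 0.05% low protease BSA, 2.5% glycerol, 0.01% Tween-20. ClpP 10 microg/mL final; 20 min RT; delta FRET normalized to ADEP and DMSO controls.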
# Numbers without * were called inactive; ? = inconclusive. Potency is the fitted concentration of half-maximal effect.
SMILES,PINK1 expr mod,ClpP mod
Fc1ccc(-n2ncc3c(NCCC4=CCCCC4)ncnc32)cc1,5.4%,-28%
COc1ccc(NC(=O)Nc2cccc(-c3noc(C)n3)c2)cc1,-4.2%,2.3%
Cc1cccc(S(=O)(=O)c2cn(Cc3ccc(F)cc3)c3cc(N4CCOCC4)c(F)cc3c2=O)c1,1.2%,4.8%
C=Cc1ccc(Cn2nc(-c3ccc(C)c(S(=O)(=O)N(CC)CC)c3)ccc2=O)cc1,0.4%,-2.9%
COC(=O)c1c(NC(=O)Cc2coc3ccc(C)cc23)sc2c1CCC2,0.6%,-6.0%
COc1cc(OC)c(C2CC(=O)Nc3ccc4ccccc4c32)cc1OC (stereo not given),1.9%,-0.7%
CCCCNC(=O)CCCCCn1c(=O)[nH]c2ccccc2c1=O,-1.0%,-18%
CCCCN1C(=O)C(O)(CC(=O)c2ccc(C)cc2C)c2cc(Br)ccc21 (stereo not given),8.7%,0.2%
O=C(CSc1nc2ccccc2nc1Cc1ccccc1F)Nc1cccc(C(F)(F)F)c1,-0.2%,-2.0%
CCC(=O)Oc1c(Sc2ccc(C)cc2)c(C)nn1-c1ccccc1,0.6%,-4.3%
CN(C)c1ccc(-c2nc(-c3cccs3)c(-c3cccs3)[nH]2)cc1,-0.6%,11µM*
CN1CCN(Cc2c(O)ccc3cc(-c4ccccc4)c(=O)oc23)CC1,0.2%,4.6%
Cc1ccc(S(=O)(=O)c2cn(CC(=O)Nc3ccc4c(c3)OCO4)c3ccccc3c2=O)cc1,0.0%,-2.8%
O=S(=O)(NCCS(=O)(=O)N1CCN(c2cccc(Cl)c2)CC1)c1ccc(F)cc1,0.2%,0.1%
CC(=O)Nc1ccc(NS(=O)(=O)c2cc3c4c(c2)CC(=O)N4CCC3)cc1,2.7%,1.6%
COc1ccc(S(=O)(=O)c2c(Nc3cccc(C)c3C)sc(C(=O)c3ccccc3)c2N)cc1,4.6%,-24%
Cc1cc(C)n(CCC(=O)Nc2ccc(Cl)cc2)n1,-0.7%,0.4%
Cc1ccc(Cn2c(CN3CCC(C(=O)NCC(C)c4ccccc4)CC3)cc3ccccc32)cc1 (stereo not given),-0.9%,-6.8%
O=C(NCc1ccc(Cl)cc1)C(=O)NCC(c1cccs1)S(=O)(=O)c1ccc(Cl)cc1 (stereo not given),3.3%,0.3%
CCOCCCNC(=O)c1[nH]c2cc(OC)ccc2c1Sc1ccccc1,1.4%,-7.6%

# In the list so far, these have an NH in an aromatic ring:
SMILES,PINK1 expr mod,ClpP mod
CCCCNC(=O)CCCCCn1c(=O)[nH]c2ccccc2c1=O,-1.0%,-18%
CN(C)c1ccc(-c2nc(-c3cccs3)c(-c3cccs3)[nH]2)cc1,-0.6%,11µM*
CCOCCCNC(=O)c1[nH]c2cc(OC)ccc2c1Sc1ccccc1,1.4%,-7.6%

# (further entries)
SMILES,PINK1 expr mod,ClpP mod
CC(C)(Oc1ccc(Cl)cc1)C(=O)Nc1ccc(-c2nc3ncccc3o2)cc1,1.0%,3.8%
O=C(CSC1=Nc2ccccc2N=C(c2ccc(F)cc2)C1)Nc1cc(F)ccc1F,8.3%,0.7%
CC(=O)N1CCCc2cc(S(=O)(=O)N(C)CC(=O)Nc3ccc(F)cc3Cl)ccc21,-1.9%,-1.8%
COCc1cc(C)nc2sc(C(=O)Nc3ccccc3O)c(N)c12,-0.9%,-2.0%
CC(C)COc1ccc(C(=O)Nc2nnc(S(=O)(=O)N(C)Cc3ccco3)s2)cc1,-0.8%,-1.3%
CCCCOC(=O)c1ccc(Nc2nc3ccccc3c3nnc(C)n23)cc1,-1.3%,-21%
O=S(=O)(c1ccc(F)cc1)N(Cc1nc(-c2ccc(Cl)cc2)no1)C1CCCCC1,1.3%,0.8%
COc1ccc(CCNC(=O)c2ccc(Cn3c(=O)c4cccn4c4cccnc43)cc2)cc1OC,3.0%,-22%
COc1ccc(NC(=O)Cn2nc3c(cc2=O)CCCC3)cc1Cl,0.7%,-0.5%
CCOc1ccc(NC(=O)N(C(C)C)C2CCN(C(C)=O)CC2)cc1,0.8%,0.9%
CCc1nnc2c(Nc3cccc(F)c3)nc3ccc(C(=O)c4ccccc4)cc3n12,4.4%,-2.0%
CCOc1ccc(CCNC(=O)CCCc2nnc3n(CC)c(=O)c4sccc4n23)cc1,1.0%,-3.8%
Cc1ccc(Cl)cc1N1CCN(C(=O)c2cnn(C)c2C2CCN(C(=O)OC(C)(C)C)CC2)CC1,-0.9%,1.4%
Cc1ccc(NS(=O)(=O)c2ccc(-c3cc(C)no3)cc2)c(C)c1,9.9%,0.3%
c1ccc(N2CCN(Cc3cccn3-c3nnc(N4CCN(C5CCCCC5)CC4)s3)CC2)cc1,?,2.6%
CCc1ccc(NC(=O)C(=O)NCCc2sc3nc(-c4ccc(OC)cc4)nn3c2C)cc1,0.5%,-22%
CC(C)CC(=O)Nc1nnc2n1CCS2,-4.7%,-0.4%
CCOC(=O)N1CCN(C(=O)C[C@@H]2C[C@@]3(C(=O)OCC)CCC=C3N(Cc3cccc4ccccc34)C2=O)CC1,0.1%,1.8%
Cc1ccc(Cn2c(SCc3ccc(C(=O)NC4CCCCC4)cc3)nc3ccncc32)cc1,1.4%,?
Cc1ccc(NC(=O)CCCn2nc(C)c3c(C)n(-c4ccccc4)nc3c2=O)cc1Cl,1.1%,0.2%

# Filtered by structure, those above with an aryl thioether with sulfur outside any ring.
SMILES,PINK1 expr mod,ClpP mod
O=C(CSc1nc2ccccc2nc1Cc1ccccc1F)Nc1cccc(C(F)(F)F)c1,-0.2%,-2.0%
CCC(=O)Oc1c(Sc2ccc(C)cc2)c(C)nn1-c1ccccc1,0.6%,-4.3%
CCOCCCNC(=O)c1[nH]c2cc(OC)ccc2c1Sc1ccccc1,1.4%,-7.6%
Cc1ccc(Cn2c(SCc3ccc(C(=O)NC4CCCCC4)cc3)nc3ccncc32)cc1,1.4%,?

# More structures
SMILES,PINK1 expr mod,ClpP mod
CSc1nc(Nc2ccc(F)cc2)cc(-c2ccccc2)n1,1.1%,?
Cc1ccc(NC(=O)C2CCCN2S(=O)(=O)c2cccc3cccnc23)cc1 (stereo not given),-0.6%,-1.3%
COc1ccc(OC)c(NC(=O)c2cc(=O)c3c(C)cc(C)cc3o2)c1,0.7%,-2.3%
Cc1cccc(C(=O)Nc2ccc(N3CCC(CCN4CCOCC4)CC3)c(C(=O)O)c2)c1,-0.6%,-2.0%
CCOC(=O)C1(C)C=C(Nc2ccc(Br)cc2)C(=O)N1c1ccccc1 (stereo not given),0.9%,0.3%
COc1ccc(CNS(=O)(=O)c2ccc3c(c2)C(C)(C)C(=O)N3C)cc1OC,0.4%,0.0%
CCOCCCNC(=O)c1ccc2c(=O)n(CCc3ccccc3)c(=O)[nH]c2c1,1.9%,-0.4%
Cc1ccc(S(=O)(=O)Nc2ccc(-c3ccc(N4CCCCCC4)nn3)cc2)cc1C,-0.1%,-5.7%
CCn1c(=O)c2cc(C(=O)N(CCN(C)C)Cc3ccccc3)sc2c2ccccc21,1.5%,-16%
Cc1nn(C)c(C)c1S(=O)(=O)N(CC(=O)NCCc1ccc(Cl)cc1)c1ccc(C(C)C)cc1,0.7%,2.0%
Nc1c(C(=O)Nc2ccc(Cl)c(C(F)(F)F)c2)sc2nc(-c3ccncc3)ccc12,0.2%,-1.6%
O=C(c1cccn2c(=O)c3cc(Cl)ccc3nc12)N1CCN(c2ccccc2F)CC1,0.4%,-10%
O=C(Nc1ccc(F)cc1F)C1CCN(C(=O)c2cnn(-c3ccccc3)c2-n2cccc2)CC1,2.1%,1.1%
COc1ccc(NC(=O)c2c(NCc3sccc3C)sc3c2CCCC3)c(OC)c1,6.2%,-1.4%
Cc1cc(C)c(NC(=O)Cn2c(=O)nc(-c3ccccc3)c3cc(Cl)ccc32)c(C)c1,4.3%,-5.0%
Cc1ccc(SCC(=O)Nc2ccc3oc(-c4cccc(C)c4)nc3c2)cc1,9.4%,4.7%
CCOC(=O)C(CC)Sc1ccc2nnc(CCNS(=O)(=O)c3ccc(C)cc3)n2n1 (stereo not given),-0.2%,-19%
O=C(c1cc(-c2ccc(Br)cc2)n[nH]1)N1CCN(S(=O)(=O)c2ccc(Cl)s2)CC1,-0.3%,0.0%
COc1ccc(C(C(=O)NCc2ccccc2)N(C(=O)Cn2nnc3ccccc32)c2ccc(OC)cc2)cc1 (stereo not given),2.9%,2.3%
CCOc1ccc(NC(=O)CN2C(=O)C(c3ccc(Cl)cc3)=NC2(C)C)cc1,-0.2%,29%
COc1ccc(NC(=O)CN(c2ccc(C)cc2)S(=O)(=O)c2cccs2)cc1OC,6.8%,-0.3%
CCOc1ccc(OCC)c(NC(=O)c2cc(-c3cccs3)nc3ccccc23)c1,0.1%,-36%
C1=Cc2ccccc2/C1=C\c1ccc(/C=C2\C=Cc3ccccc32)cc1,0.1%,-0.4%
COc1cccc(CNC(=O)C(C)n2c(=O)cc(-c3ccccc3)c3c(C)nn(C)c32)c1 (stereo not given),0.8%,4.3%
CCCCn1c(=O)c2oc3ccccc3c2n(CC(=O)Nc2ccc(CC)cc2)c1=O,1.1%,-2.9%
Cc1ccc(S(=O)(=O)N2CCN(c3nc(-n4ccnn4)nc4ccccc34)CC2)cc1,0.1%,?
CCN(CC)S(=O)(=O)c1ccc(NC(=O)c2c(C)oc3ncnc(N4CCOCC4)c23)cc1,1.5%,0.9%
CC(=O)N1CCCc2cc(S(=O)(=O)N3CCC(C(=O)NCc4ccccc4Cl)CC3)ccc21,-0.7%,0.3%
Cc1cccc(NC(=O)Cn2nnc(C(=O)Nc3ccccc3Br)c2N)c1C,11%,-2.6%
CN(Cc1cn(Cc2ccc(Cl)cc2)nn1)C1CN(Cc2cn(Cc3ccc(Cl)cc3)nn2)S(=O)(=O)C1 (stereo not given),-1.1%,-0.7%
Cc1ccc(OCc2nc3ccccc3n2CCOc2ccc(Cl)cc2)cc1,?,-2.4%
O=C(COc1ccccc1C(=O)Nc1ccccc1)Nc1ccccc1-c1ccccc1,1.4%,-27%
Cc1ccc(C)c(NC(=O)c2cc(=O)c3cc(C)cc(C)c3o2)c1,3.3%,1.3%
CCOC(=O)N1CCc2c(sc(NCc3ccc(N(CC)CC)cc3)c2C(=O)Nc2cc(OC)ccc2OC)C1,0.3%,2.5%
Cc1ccc2c(c1)c1c(c(=O)n(-c3ccccc3C)c(=O)n1CC(=O)N1CCCC1)n2C,0.2%,4.6%
CCOc1cc(Cl)c(S(=O)(=O)n2ccnc2)cc1Cl,3.4%,0.4%
CC1=C(C(=O)Nc2ccccc2Cl)C(c2cccc(O)c2)n2ncnc2N1 (stereo not given),-5.2%,0.3%
O=C(Nc1ccc(F)cc1F)c1noc2c1CCc1ccccc1-2,0.3%,-16%
COCCNc1oc(-c2ccc(COc3ccc(OC)cc3)o2)nc1C#N,-1.7%,?
Cc1ccccc1OCC(=O)Nc1ccc(C(=O)OCc2cc(=O)n3ccsc3n2)cc1,-2.2%,-8.6%
COc1ccc(-n2nc3ccc(NC(=O)c4c(OC)cccc4OC)cc3n2)cc1,0.3%,31%
COc1ccc(-c2noc(-c3cc(C(C)C)[nH]n3)n2)cc1,2.3%,-2.4%
Cc1cc(F)ccc1NC(=O)CCS(=O)(=O)c1cc2c(cc1C)NC(=O)CO2,-1.3%,-1.9%
CCc1cccc2sc(N3CCN(C(=O)c4cc5ccccc5cc4OC)CC3)nc12,-1.3%,-16%
Cc1nc2ccccc2n1CCc1nc2c3ccccc3nc(SCC(=O)Nc3ccc(Br)cc3F)n2n1,0.0%,-3.2%
Cc1ccc(NC(=O)C(Cc2c[nH]c3ccccc23)NC(=O)OC(C)(C)C)c(C)c1 (stereo not given),5.5%,-10%
CCN(C(=O)Cn1c(C(=O)OC)cc2sccc21)c1cccc(C)c1,1.1%,-1.2%
O=[N+]([O-])c1ccc(/C=C/c2ccc3cccnc3c2)cc1,-0.2%,-4.0%
COc1cc(OC)c(NC(=O)Cn2cnc3c(nc4n3CCCCC4)c2=O)cc1Cl,2.5%,0.7%
CC(C)(C)OC(=O)N1CCC(c2c(C(=O)NCc3ccco3)cnn2-c2ccc(F)cc2)CC1,0.3%,-4.4%
O=C(Nc1ccc2c(c1)OCO2)c1cc(-c2ccc(Cl)cc2)on1,2.9%,-0.5%
COC(=O)c1ccc(NC(=O)CSc2nc3cc4ccccc4cc3[nH]2)cc1,0.7%,-6.6%
COC(=O)c1ccccc1NC(=O)Cc1noc2ccc(C)cc12,0.0%,-20%
CCc1ccc(-c2ccc(C(=O)Oc3ccc(Br)cc3)cc2)nc1,0.6%,-9.6%
CCOc1ccc(-n2c(/C=C/c3cccc(F)c3)nc3cc(OC)c(OC)cc3c2=O)cc1,1.5%,0.8%
O=C(Nc1ccc2oc(-c3ccc4ccccc4c3)nc2c1)c1ccc(Cl)c(Cl)c1,2.8%,-6.3%
COc1ccc(CCNC(=O)c2ccc3c(c2)sc2nc(-c4ccccc4)cn23)cc1OC,2.1%,?
CCN1C(=O)c2ccccc2Sc2ccc(NC(=O)Nc3cccc([N+](=O)[O-])c3C)cc21,2.6%,-3.1%

# Reformatted with two lines to a compound: part of the list above.
# Order of results – PINK1 expr mod | ClpP mod
CCN(C(=O)Cn1c(C(=O)OC)cc2sccc21)c1cccc(C)c1
 : 1.1% | -1.2%
COC(=O)c1ccc(NC(=O)CSc2nc3cc4ccccc4cc3[nH]2)cc1
 : 0.7% | -6.6%

# This is a subset; rates above refer to the full screens.
